# Vif A3G = HIV-1 Vif–A3G interaction blockers – biochemical, TR-FRET, GST-Vif 1-94, biotin-A3G peptide, dose response retest, primary screen (AID 1117319) | TR-FRET GST-Vif / biotin-A3G peptide binding; higher % means a stronger effect; test concentration not given here; strong numbers were not always called active | inhibition, %; hits with a dose series show IC50 in µM | 260,000 compounds, 0.57% hits;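 active means above the screen mean plus three standard deviations and confirmed in dose response; inconclusive means results disagree or hit not tested in dose response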;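 further: Vif residues 1-94 fused to GST binding biotinylated APOBEC3G peptide 110-148; 0% = full assay without inhibitor and 100% = GST in place of GST-Vif; retest series ran down from 100 µM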
# LANA-H2A inh = blocks KSHV LANA binding to histone H2A/H2B. inhibition, % (test concentration not listed). AID 2629. 320,000 compounds, 0.6% hits. Q9QR71. cell-free LANA-H2A/H2B peptide, fluorescence polarization; in the data active means inhibition mostly above about 10%, no sharp cut-off; inactive means mostly below about 6.7%;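 further: stock transfer was 7.5 nL into about 10 µL; 0% = median of vehicle wells and 100% = median of positive control wells; one replicate is shown; the record names a cut of 25% in any replicate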
# Target sequence (Q9QR71 whole entry, looked up): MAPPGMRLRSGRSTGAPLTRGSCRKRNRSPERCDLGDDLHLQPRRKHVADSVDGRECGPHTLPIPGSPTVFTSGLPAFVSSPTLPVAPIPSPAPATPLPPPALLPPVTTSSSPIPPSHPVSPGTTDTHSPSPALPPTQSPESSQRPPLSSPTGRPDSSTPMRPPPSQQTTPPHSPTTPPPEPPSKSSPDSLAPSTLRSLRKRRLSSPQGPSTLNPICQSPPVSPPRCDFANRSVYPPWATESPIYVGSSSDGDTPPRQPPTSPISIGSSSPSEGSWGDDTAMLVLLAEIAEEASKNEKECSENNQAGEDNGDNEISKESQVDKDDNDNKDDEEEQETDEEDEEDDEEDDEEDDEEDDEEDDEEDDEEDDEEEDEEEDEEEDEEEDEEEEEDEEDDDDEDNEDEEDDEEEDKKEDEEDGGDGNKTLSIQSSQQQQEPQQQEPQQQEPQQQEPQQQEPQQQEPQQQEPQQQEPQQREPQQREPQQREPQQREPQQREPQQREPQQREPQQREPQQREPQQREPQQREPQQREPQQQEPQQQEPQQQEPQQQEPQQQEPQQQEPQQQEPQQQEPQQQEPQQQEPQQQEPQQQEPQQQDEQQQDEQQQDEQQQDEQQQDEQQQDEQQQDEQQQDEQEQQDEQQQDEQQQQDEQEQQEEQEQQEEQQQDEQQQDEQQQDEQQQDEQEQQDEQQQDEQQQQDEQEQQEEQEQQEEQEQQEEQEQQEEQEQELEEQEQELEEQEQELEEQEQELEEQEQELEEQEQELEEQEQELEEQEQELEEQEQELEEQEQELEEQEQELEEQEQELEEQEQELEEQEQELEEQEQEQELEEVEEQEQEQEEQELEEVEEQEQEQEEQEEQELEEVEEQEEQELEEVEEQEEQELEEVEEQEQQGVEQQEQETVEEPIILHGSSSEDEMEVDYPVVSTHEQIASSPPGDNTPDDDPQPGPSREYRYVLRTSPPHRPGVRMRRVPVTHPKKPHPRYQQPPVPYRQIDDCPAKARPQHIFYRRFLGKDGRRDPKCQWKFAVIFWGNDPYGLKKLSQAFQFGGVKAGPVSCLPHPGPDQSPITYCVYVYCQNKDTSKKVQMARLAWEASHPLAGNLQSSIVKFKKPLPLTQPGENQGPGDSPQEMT
# AF4-AF9 inh = blocks AF4 peptide binding to human AF9 | P42568 | AlphaScreen, biotin-AF4 peptide binding to FLAG-AF9 | inhibition, % at 10 µM | 350,000 compounds, 0.47% hits | AID 651704;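 active means every replicate reaching a set inhibition limit, whatever the replicate mean, cut at about 25% in these data; inconclusive means mean inhibition reaches that limit but some replicates miss it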;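 further: 0% = plate neutral control median and 100% = total signal loss; the record names both 10 and 1 µM as test concentration; the first replicate is given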
# Bfl-1 A1 inh = inhibitors of the anti-apoptotic protein A1, read as caspase activation; AID 2462; 330,000 compounds, 0.066% hits; caspase activation, % (test concentration not listed); MEF A1-2A-BIM cells, Caspase-Glo 3/7 luminescence, 3 h; percent of clofoctol response, vehicle zero;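 active means over half of replicate activation scores above 10%, or exactly half above 10 with the replicate mean above 10; inconclusive means replicate mean below 10 yet half the replicates above 10; inactive means over half of replicates below 10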;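 further: wells of about 30 µL received 50 nL stock; many hits fall short of the cut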
# RanGTP-Imp inh = inhibitors of RanGTP-importin-beta interaction, primary screen, biochemical, FRET, CFP-Ran, YFP-importin-beta, homogeneous; 300,000 compounds, 1.1% hits; cell-free CFP-Ran/YFP-importin-beta FRET ratio; inhibition, % (test concentration not listed); AID 2216;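 active means most replicates above 15%; inconclusive means exactly half above 15%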;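 further: 0% = DMSO wells and 100% = Ran loaded with GDP instead of GTP; wells of about 40 µL received 100 nL stock; the first replicate is given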
# Beta apoptosis = beta cell apoptosis inhibition | INS-1E cytokine-induced death, ATP luminescence, 48 h; percent of positive-control rescue, neutral wells zero | protection from apoptosis, % (no concentration beside the values) | 300,000 compounds, 0.8% hits | AID 435005;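 active means all replicates at 75% or more, or half of them and the mean; inconclusive means half reach 75% but not the mean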;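 further: 0% = cytokine-treated negative control wells and 100% = positive control rescue; higher means more ATP so stronger rescue from cytokine killing; wells of about 40 µL received 100 nL stock; the first replicate is given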
# Calb FLC = C. albicans growth modulation with fluconazole; C. albicans CaCi-2 (fluconazole-resistant clinical isolate) + fluconazole, Alamar Blue growth, 48 h; growth inhibition, % (test concentration not listed); 300,000 compounds, 0.57% hits; AID 1979;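 active means most replicates above 75%; inconclusive means exactly half above 75%; inactive means most below 75%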;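 further: all wells also contain fluconazole at 8 µg/ml as a sub-toxic cotreatment; 0% = median of DMSO wells and 100% = median of geldanamycin control wells; wells of about 8 µL received 7.5 nL stock; the first replicate is given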
# T cruzi inh = T. cruzi replication inhibition; 300,000 compounds, 1.4% hits; AID 1885; T. cruzi beta-gal in NIH3T3, luminescence, 90 h; inhibition, % (test concentration not listed);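 active means mean inhibition across valid replicates above about 55%, limit read from the data; inconclusive means mean below that limit but half or more replicates reach it; inactive means mean below it, under half of replicates reach it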;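 further: signal also drops with host cell toxicity which is not excluded here; 0% = plate median of DMSO wells and 100% = zero luminescence signal; higher percent means less beta-gal luminescence so fewer parasites; stock transfer was 50 nL into about 50 µL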
# An asterisk follows results filed as active; ? = inconclusive; . = no result given.
SMILES,Vif A3G,LANA-H2A inh,AF4-AF9 inh,Bfl-1 A1 inh,RanGTP-Imp inh,Beta apoptosis,Calb FLC,T cruzi inh
CCN(CC)S(=O)(=O)c1ccc(C)c(NC(=O)CSc2nnnn2C)c1,.,-0.3,0.0,-0.9,.,2,.,.
Cn1c(Nc2ccc(Cl)cc2)cc(=O)n(C)c1=O,.,-7.3,-32,0.0,8.7,-3,3,12
O=S(=O)(c1cccc(-c2nnco2)c1)N1CCCC1,-14%,-1.8,.,-0.6,.,0,.,.
CCCNS(=O)(=O)c1cc(Br)cc2c1N(C(=O)CC)CC2,-9%,0.1,.,0.4,2.4,-2,6,-3
Cc1cc(C)c(NS(=O)(=O)c2ccc3c(c2)NC(=O)C(C)C(=O)N3)c(C)c1 (stereo not drawn),.,-1.1,7.6,.,-6.7,-3,-6,-14
Cc1nn(CC(=O)NCCCN2CCCC2=O)c(C)c1[N+](=O)[O-],.,0.0,7.5,-0.1,.,2,.,.
Cc1[nH]c2ccccc2c1/C=C/c1cc[n+](C)cc1,-10%,.,.,.,-132,.,104*,50
Cc1ccc(CNC(=O)CNC(=O)[C@@H]2Cc3ccccc3CN2C(=O)OC(C)(C)C)cc1,.,1.2,-1.0,-0.3,1.0,0,0,9
COc1ccc(CCNCC(O)c2ccccc2)cc1 (stereo not drawn),-2%,2.2,-21,-0.7,3.2,-4,4,3
COc1cccc2[nH]c(C(=O)NCCCN3CCCC3=O)cc12,.,3.2,-3.2,-1.3,4.2,-1,0,-5
CCCN1CNc2c(c(=O)[nH]c(=S)n2CCc2ccccc2)C1,-7%,0.0,-2.5,0.5,.,4,-21,.
Cc1ccc(/C(O)=C/c2nc3ccccc3oc2=O)cc1,11%,-0.1,-5.7,-0.3,5.9,-1,-1,-2
CCOC(=O)Cn1nc(-c2ccccc2)c2cnc3ccc(CC)cc3c21,11%,-1.9,1.6,0.4,-0.7,4,-7,29
C#CCNC(=O)C1=C[C@@H](c2ccc(C#C)cc2)C[C@@H](OCCCCO)O1,.,1.4,.,0.2,1.9,-4,-3,8
COc1ccc(C2/C=C\CN(C(=O)c3ccccc3)CC(=O)N2Cc2ccc(F)cc2)cc1 (stereo not drawn),.,7.2,-1.6,0.0,-3.2,-13,2,-3
O=S(=O)(NNc1ccc(Cl)nn1)c1ccc(F)cc1,5%,-1.6,.,-0.8,-2.5,-2,5,-7
CCOC(=O)C1CCN(C(=O)/C=C/c2ccc(S(=O)(=O)N3CCOCC3)cc2)CC1,-4%,-0.7,3.4,0.0,.,-1,.,.
CC(C)N1CCN(Cc2cnc(-c3ccccc3)s2)CC1CCO (stereo not drawn),-8%,-4.2,-4.9,-1.0,7.9,-5,-11,25
O=C(c1ccco1)N1CCN(S(=O)(=O)c2ccc(C3CCCCC3)cc2)CC1,-8%,-3.5,.,-0.4,1.5,.,-11,16
Cc1nc2ccccc2c2oc(C(=O)N3CCC(N4CCCCC4)CC3)cc12,-3%,5.3,.,-0.3,.,7,.,.
OCCC1CN(Cc2ccc3ncccc3c2)CCN1Cc1ccccc1 (stereo not drawn),3%,8.4,3.0,0.3,0.3,.,11,49
CCN1CCN(C(=O)/C=C\C(=O)O)CC1,-5%,6.9,.,0.0,5.3,-4,-4,-26
CCCN1CCC(NCc2cn(C)nc2-c2ccc(Oc3ccccc3)cc2)CC1,.,2.4,-2.8,0.6,0.0,4,0,18
CCOC(=O)c1[nH]c(C)c(C(=O)/C=C/c2ccc(C(=O)O)cc2)c1C,.,5.2,-12,-0.2,9.5,-37,-7,-4
CCN(CC)c1ccc(NC(=O)Cn2c(C(C)NC(=O)c3ccc(C)cc3)nc3ccccc32)cc1 (stereo not drawn),-10%,.,0.1,.,-0.5,.,-10,-24
# Remaining list, next part.
SMILES,Vif A3G,LANA-H2A inh,AF4-AF9 inh,Bfl-1 A1 inh,RanGTP-Imp inh,Beta apoptosis,Calb FLC,T cruzi inh
O=C(CCN1C(=O)C2CCCCC2C1=O)Nc1nc2c(F)cc(F)cc2s1 (stereo not drawn),-22%,0.8,-0.5,-0.5,.,-2,.,.
c1ccc(CSc2cc3ccccc3[nH]2)cc1,.,-2.4,7.8,0.7,-1.9,.,-2,19
CCCn1nc2cc(C(=O)NCCc3cccs3)ccc2c1OCC,-9%,2.2,0.1,-3.2,-1.5,-2,0,-2
O=C1CCCc2sc3c(c2N1)CCCCC3,32%,-0.8,.,-0.1,-0.2,-4,-6,-3
Cc1ccc2nc(SCC(=O)NNC(=O)c3ccccc3)[nH]c2c1,.,0.8,.,-0.4,1.0,-1,0,-9
Cc1cc2nnc(SCC(=O)OC(C)C)n2c2ccccc12,30%,4.7,.,0.1,-5.3,.,-7,3
COC(=O)C1=NNC(C(=O)c2ccco2)C1c1ccccc1 (stereo not drawn),6%,0.9,1.2,0.6,3.3,-5,19,-4
O=C(NC1CCCN(Cc2ccccc2F)C1)C1CCC1 (stereo not drawn),.,5.2,2.5,0.6,-0.8,.,-4,0
Cc1ccc(S(=O)(=O)NC2c3cccc4cccc(c34)C2Sc2nncn2C)cc1 (stereo not drawn),?,5.7,-1.0,0.4,1.2,-11,12,2
O=C(Cn1nnc(-c2ccccc2)n1)N1CCCCC1,.,-1.4,-0.8,0.4,4.2,-2,-6,0
Cc1cccc(CSc2nc3c(c(=O)[nH]2)CCC3)c1,.,-2.9,-0.2,0.4,-3.0,-3,-25,2
CCNc1c(NC(C)=O)c(=O)oc2ccccc12,-3%,3.2,.,0.8,0.2,-5,3,-14
Cn1c(=Nc2ccc(N3CCOCC3)cc2)ccc2ccccc21,32%,0.9,.,0.8,4.6,2,-8,2
O=C(NCCCn1ccnc1)c1nc(Cn2cc(Br)cn2)no1,7%,.,-1.0,.,0.8,.,0,-8
Cc1nc(CS(=O)(=O)c2ccccc2)cc(Sc2ccccc2Cl)n1,-2%,4.2,.,0.6,1.7,-9,8,10
COc1ccc(C(C)=O)cc1CSc1nc2cc(Cl)ccc2o1,20%,2.8,.,1.3,0.5,.,-5,1
O=C(CCN1C(=O)C2CC=C(Cl)CC2C1=O)NC1CCCCC1 (stereo not drawn),-3%,2.0,.,0.4,-3.0,1,-6,-7
CSc1cccc2sc(NC(=O)C3=COCCO3)nc12,-5%,2.5,-0.5,-1.7,-2.1,-3,-7,3
O=C1NC(CCc2ccccc2)C(=O)N1Cc1ccc(Br)cc1 (stereo not drawn),0%,0.8,-3.1,-0.2,4.2,-4,-13,1
CC(C)(C)C(=O)NC(=S)Nc1ccccc1C(N)=O,14%,3.1,.,-0.3,?,-6,27,-4
CC(=O)N1CCc2c(sc(NC(=O)CS(=O)(=O)c3ccc(F)cc3)c2C(N)=O)C1,10%,.,4.5,-0.5,21*,-4,-4,16
Nc1ccc(-c2cc(-c3ccc(N)cc3)nc(-c3ccccc3)n2)cc1,.,-6.2,-0.7,0.1,-0.6,-2,2,8
CC1CN(CCc2ccccc2)c2nc3c(c(=O)[nH]c(=O)n3C)n2C1 (stereo not drawn),0%,2.1,.,0.7,-3.7,0,-14,-2
Cc1ccc(C)c(CSc2nnc(-c3cccnc3)n2N)c1,-5%,-2.5,.,0.5,5.1,-3,-26,-3
Cc1ccc2c(c1)N(CC(=O)NCCCN1CCCCC1)C(=O)c1cccnc1O2,-6%,3.4,-0.1,0.8,-5.4,-6,2,-11
# (next part)
SMILES,Vif A3G,LANA-H2A inh,AF4-AF9 inh,Bfl-1 A1 inh,RanGTP-Imp inh,Beta apoptosis,Calb FLC,T cruzi inh
Nc1nonc1C(=O)N/N=C/c1ccc(-c2cccc([N+](=O)[O-])c2)o1,-3%,3.9,.,0.1,-1.2,-4,0,-5
COc1ccc(Cl)cc1NC(=O)CN(C)C(C)C(=O)NC(=O)NC1CCCCC1 (stereo not drawn),-4%,1.0,-8.6,0.1,0.1,25,-18,50
O=C(NC1CCCC1)c1ccc(S(=O)(=O)N2CCOCC2)cc1,-2%,5.2,.,-0.1,0.3,-2,-8,1
Cc1oc(-c2cccc(Cl)c2)nc1CN1CCC(C(=O)NCc2ccco2)CC1,28%,7.6,.,0.0,0.6,-2,-33,-8
CCOC(=O)CC(=O)CSc1nc2sc(C)cc2c(=O)n1Cc1ccco1,5%,4.1,.,-1.1,-1.8,3,5,-9
O=C(CC(=O)c1cccc([N+](=O)[O-])c1)Nc1ccccc1Cl,3%,8.0,-0.3,-1.3,-3.1,1,103*,-23
O=C(/C=C/c1ccccc1)NC1CCCc2ccccc21 (stereo not drawn),?,12,.,1.1,1.7,7,-3,-3
O=C(O)c1cnn(-c2nc(-c3ccc(Cl)c(Cl)c3)cs2)c1C(F)(F)F,-15%,-2.2,-2.2,-0.1,-3.7,-4,30,5
Cc1nn(C)c(C(=O)N2CCN(C(=O)c3ccco3)CC2)c1Br,.,-1.5,0.0,0.1,2.9,1,13,-20
O=C(NNC(=O)C1CCCN(S(=O)(=O)c2ccc3ccccc3c2)C1)C1CC1 (stereo not drawn),1%,.,-2.4,.,-0.5,.,12,4
CC(C)Oc1cccc(C(=O)C2CCCN(C(=O)c3cc(C(F)(F)F)[nH]n3)C2)c1 (stereo not drawn),-4%,-3.9,-2.5,-0.4,2.4,-1,8,-21
CC(Oc1cccc(Cl)c1)C(=O)N(C)CC(=O)Nc1ccc(N2CCOCC2)cc1 (stereo not drawn),4%,2.4,0.8,0.6,-0.2,3,8,-6
Cc1cc(=O)oc2c(C(=O)c3ccccc3)c(OCC(N)=O)ccc12,-3%,-2.0,-1.1,0.4,5.3,3,6,-5
O=C(NC1CCCC1)c1cccc2c1C(=O)c1ccc(N3CCCCC3)cc1S2(=O)=O,.,11,-14,-1.8,.,5,.,.
COc1ccccc1-c1nnc(SCC(=O)NC2CCS(=O)(=O)C2)n1N (stereo not drawn),-7%,-0.7,-1.4,-0.2,-3.5,-4,-12,-10
COc1ccccc1OCCN1CSC(=S)N(C)C1,0%,0.8,.,0.0,?,-9,-51,9
COc1ccc(N(CC(=O)NC2CCCC2)C(=O)CCC(=O)Nc2cc(C)on2)cc1OC,-5%,1.2,-6.4,0.9,0.9,-6,0,-5
CN(C)c1ccc(/C=N/NC(=O)c2nonc2N)cc1[N+](=O)[O-],3%,1.1,1.5,-3.8,0.3,-2,?,-4
CCCCn1c(C)cc(C)c(S(=O)(=O)c2ccccc2C)c1=O,-2%,-4.5,.,-0.8,0.6,-6,4,7
COc1ccc(NC2c3ccccc3C(=O)N2c2ccccn2)cc1 (stereo not drawn),9%,-2.3,2.1,0.1,-1.5,-12,7,14
O=C(O)c1ccc(N2C(=O)c3cccc4cccc(c34)C2=O)cc1,26%,-0.3,12,-0.3,0.8,-3,5,-17
COc1ccc(N2CCN(CC(O)COc3ccccc3[N+](=O)[O-])CC2)cc1 (stereo not drawn),-5%,3.3,6.4,0.5,1.0,-8,-12,19
O=C(COc1ccccc1Cl)NC(=O)NC1CCCCC1,-8%,-0.6,-0.8,-0.7,0.1,-3,6,-3
CC1CCCCN1CCCNC(=O)CN1C(=O)c2cccnc2Oc2ccc(Cl)cc21 (stereo not drawn),4%,3.9,2.1,0.1,-4.5,4,-3,-6
O=C(NCCCNCCCNC(=O)c1ccccn1)c1ccccn1,-4%,-5.8,.,-0.6,0.2,2,-2,16
